VLA-4 inh – inhibition in a human VLA-4 binding assay; P13612; VLA-4 expressing cells, ligand binding flow cytometry; inhibition, % (about 7 µM as worked out from the volumes in the protocol); 0.2% of 330,000 active; AID 2557; in the data active = inhibition above about 50%
PME-1 inh – blocks human protein phosphatase methylesterase 1; recombinant PME-1, FP-Rh probe fluorescence polarization; Q9Y570; AID 2130; inhibition, % at 5.9 µM; 0.53% of 320,000 active;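 active = inhibition above the campaign mean of all compounds plus 3 SD, cut at about 26% in these data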;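 also: competitive labeling of PME-1 active site by serine hydrolase directed probe; 0% = PME-1 with DMSO and 100% = wells lacking PME-1 enzyme; inhibitors block probe labeling so polarization falls and inhibition rises; many of its hits are not listed in these tables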
Target sequence (Q9Y570 whole entry, looked up): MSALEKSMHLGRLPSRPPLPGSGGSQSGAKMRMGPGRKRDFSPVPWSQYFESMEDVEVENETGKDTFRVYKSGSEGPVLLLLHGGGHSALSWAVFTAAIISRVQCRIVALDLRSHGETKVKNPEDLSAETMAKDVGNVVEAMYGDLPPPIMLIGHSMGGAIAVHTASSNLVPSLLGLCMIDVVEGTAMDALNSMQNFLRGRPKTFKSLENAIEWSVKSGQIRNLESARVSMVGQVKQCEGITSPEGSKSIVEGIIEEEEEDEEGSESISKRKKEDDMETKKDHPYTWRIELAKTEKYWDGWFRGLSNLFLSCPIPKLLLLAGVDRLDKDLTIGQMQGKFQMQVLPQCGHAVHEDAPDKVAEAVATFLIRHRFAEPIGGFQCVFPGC
GLD-1 RNA inh – GLD-1-TGE RNA interaction inhibition (C. elegans) | Q17339 | purified GLD-1 + fluorescein TGE RNA, fluorescence polarization | inhibition, % at 5.96 µM | 0.44% of 320,000 active | AID 2280;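 active = percent inhibition above a per-plate cutoff, the plate mean of test compounds plus 3 SD, cut at about 30% in these data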;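 also: 0% = DMSO wells with GLD-1 and probe and 100% = wells lacking GLD-1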
Fam108B inh – counter-screen for RBBP9 inhibitors: inhibitors of mouse Fam108B | recombinant Fam108B, FP-Rh probe fluorescence polarization | inhibition, % at 9.51 µM | 0.33% of 300,000 active | AID 1947;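 active = inhibition above the screen mean inhibition plus 3 SD, computed separately per campaign, cut at about 18% in these data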;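 also: inhibitors lower polarization as less probe binds the enzyme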
Efflux pump mplx – blocks antifungal efflux pumps in multiplex yeast assay; S. cerevisiae Candida pump triplex, Nile Red efflux; inhibition, % at 10 µM; 0.44% of 330,000 active;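 active = plate passing quality check with inhibition over a set limit, or well fluorescence over plate mean plus 4 SD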;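 also: Nile Red retained in pooled yeast measured as flow cytometry median fluorescence; 0% = buffer negative control and 100% = Enniatin B positive control; higher means more Nile Red kept so more efflux inhibition; some compounds called inactive have numbers as strong as hits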
GRK2 aptamer HTS – blocks RNA aptamer binding to human GRK2; bead flow cytometry, FAM-aptamer displacement from GRK2; AID 488847; inhibition of aptamer binding, % at 10 µM; P25098; 0.59% of 330,000 active;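 active = inhibition of aptamer binding above 40%, roughly 3 SD of noise, on plates passing a quality check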;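 also: median bead fluorescence of bound FAM aptamer so fluorescent compounds give negative values; no value below 0 was filed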
MEX-5 binding – C. elegans MEX-5 TCR-2 RNA binding activity; Q9XUB2; MEX-5/FITC-TCR2 RNA binding, fluorescence polarization; active compounds read low; activity score (negative = inhibition of binding), % at 10 µM; 0.38% of 300,000 active;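 active = inhibition past about -25% in most replicates, and total fluorescence under double the plate's negative control median, limit read from the data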;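 also: 0% = DMSO and -100% = 5 µM competing unlabeled TCR2 RNA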
Target sequence (Q9XUB2 whole entry, looked up): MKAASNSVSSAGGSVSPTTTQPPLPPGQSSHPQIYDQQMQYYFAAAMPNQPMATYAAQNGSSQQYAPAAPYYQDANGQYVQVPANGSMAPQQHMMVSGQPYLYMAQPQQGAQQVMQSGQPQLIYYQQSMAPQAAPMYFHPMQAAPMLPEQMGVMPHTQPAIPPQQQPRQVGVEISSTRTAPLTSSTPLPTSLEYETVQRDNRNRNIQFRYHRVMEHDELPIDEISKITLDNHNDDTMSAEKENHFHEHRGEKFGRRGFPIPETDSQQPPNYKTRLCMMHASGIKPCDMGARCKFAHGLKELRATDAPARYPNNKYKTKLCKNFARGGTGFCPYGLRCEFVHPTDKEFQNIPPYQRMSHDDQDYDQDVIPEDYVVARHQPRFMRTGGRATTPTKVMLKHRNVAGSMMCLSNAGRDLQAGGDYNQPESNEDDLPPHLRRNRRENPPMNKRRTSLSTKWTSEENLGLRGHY
Starred values were filed as active, the others as inactive; nt = not tested or not shown; & = joins results of further samples. Only part of the results is shown; rates above refer to the full screens.

Each structure is followed by: PME-1 inh, GRK2 aptamer HTS, Efflux pump mplx, Fam108B inh, MEX-5 binding, GLD-1 RNA inh, VLA-4 inh
> Cn1c(=O)n(Cc2ccc(Cl)cc2)c(=O)c2c1nc1n2CCN1Cc1ccco1
  -7, 0, -0.4, 1, -0.8, 8, -10
> Cc1cc(C(C#N)c2ccc(Cl)cc2)c(Cl)cc1NC(=O)c1cc(I)cc(I)c1O (stereo not drawn)
  40*, 2, -0.3, 25*, -1.0, 9, -1
> CCOc1ccc(Cn2c3ccc(OC)cc3c3nc4ccccc4nc32)cc1
  3, 8, -0.1, 0, nt, 5, -14
> CCCN(CCO)Cc1cccc(Cl)c1
  0, 2, 0.3, 0, -3.6, 3, 5
> COc1nc(Nc2ccc3c(c2)OCO3)nc(OC)n1
  -2, 1, 0.0, -2, -0.5, 8, -22
> C[C@H](CCC(=O)O)[C@H]1CC[C@H]2[C@@H]3CC[C@@H]4C[C@H](O)CC[C@]4(C)[C@H]3CC[C@]12C
  -10, 4, 0.3, -4, nt, 2, 26
> CCCc1nc(-c2cc3ccc(C)cc3[nH]c2=O)no1
  1, 0, 0.1, -4, -2.7, 3, 10
> COc1ccc(/C=N/Nc2ncnc3c2[nH]c2ccc(C)cc23)c(OC)c1OC
  7, 3, 0.0, 5, 0.9, 6, 13
> CCCCCCNCc1ccc(Br)cc1
  -3, 0, 0.1, 4, 2.1, -3, 1
> c1cc2ccc3ccc(-n4cnnn4)c4ccc(c1)c2c34
  -15, 0, -0.4, -15, -3.0, -5, -8

Additional structures follow.
Each structure is followed by: PME-1 inh, GRK2 aptamer HTS, Efflux pump mplx, Fam108B inh, MEX-5 binding, GLD-1 RNA inh, VLA-4 inh
> COc1ccc(/C=C(/Sc2nnc(-c3ccc(Cl)cc3)o2)C(=O)O)cc1
  -4, 0, 0.0, -2, 1.9, -2, 25
> CC(C)n1cc(/C=N/NC(=O)COc2cccc3cccnc23)c2ccccc21
  25, 0, 3.1*, -3, 1.6, 1, 11
> Cc1cc(CSc2ccccc2)ccc1NC(=O)c1ccc(Br)cc1
  1, 1, 0.2, -1, 0.1, -8, -27
> Cc1cccc(OCCNC(=O)CSc2ccc(C(F)(F)F)cc2[N+](=O)[O-])c1
  2, 1, -0.6, 3, 1.1, 6, 12
> Cc1nc(-c2cccnc2)sc1C(=O)Nc1ccc(F)cc1F
  5, 0, -0.1, -1, 1.5, -2, -1
> C=CCN1C(=O)C(CC(=O)Nc2ccc(OC)cc2)N(Cc2ccco2)C1=S (stereo not drawn)
  3, 3, 0.1, 2, 0.3, -4, 6
> N#CC(C#N)=C(Nc1ccc(F)cc1)SCc1cccc(F)c1
  -2, 0, -0.2, 6, 3.0, 5, 0
> COC(=O)CNC(=O)COC(=O)c1cc(F)c(F)cc1Cl
  -2, 0, -0.1, 0, 0.9, -2, 1
> CCC(=O)c1ccc2c(c1)N(CCCN(C)C)c1ccccc1S2
  1, 0, 0.1, 0, -2.2, 5, -7
> Cn1c(OCc2ccc3c(c2)OCO3)nc2c1c(=O)n(Cc1ccc(Cl)c(Cl)c1)c(=O)n2C
  -4, 0, -0.1, -5, 0.8, -4, 16

Complete entries as entered above. Values in the order: PME-1 inh | GRK2 aptamer HTS | Efflux pump mplx | Fam108B inh | MEX-5 binding | GLD-1 RNA inh | VLA-4 inh
Profile of CCCCCCNCc1ccc(Br)cc1 = -3 | 0 | 0.1 | 4 | 2.1 | -3 | 1
Profile of Cc1cccc(OCCNC(=O)CSc2ccc(C(F)(F)F)cc2[N+](=O)[O-])c1 = 2 | 1 | -0.6 | 3 | 1.1 | 6 | 12
Profile of CCC(=O)c1ccc2c(c1)N(CCCN(C)C)c1ccccc1S2 = 1 | 0 | 0.1 | 0 | -2.2 | 5 | -7
Profile of Cc1cc(CSc2ccccc2)ccc1NC(=O)c1ccc(Br)cc1 = 1 | 1 | 0.2 | -1 | 0.1 | -8 | -27

(next part)
Each structure is followed by: PME-1 inh, GRK2 aptamer HTS, Efflux pump mplx, Fam108B inh, MEX-5 binding, GLD-1 RNA inh, VLA-4 inh
> Cc1ccc(C2(C)NC(=O)N(CC(=O)Nc3ccc4[nH]c(=O)[nH]c4c3)C2=O)cc1 (stereo not drawn)
  3, 0, 0.0, 4, -0.2, -1, 1
> Cc1nc(SCC(=O)Nc2c(C)nn(C)c2C)c2cnn(-c3ccccc3)c2n1
  0, 1, 0.4, 8, 0.6, 2, 4
> Cc1ccc(C(=O)COC(=O)c2ccc3c(c2)C(=O)N(c2cccc4ncccc24)C3=O)cc1
  3, 0, 0.1, -2, -0.2, -2, -9
> COCC(=O)Nc1cc(C(=O)Nc2ccccc2C)ccc1Cl
  0, 0, 0.0, 1, -1.7, 5, -9
> NC1CCN(c2cccc(Cl)n2)CC1
  -6, 1, -0.1, -3, 1.2, 4, 9
> CC1C/C(=N\NC(=S)NCc2ccccc2)CC(C)(C)C1 (stereo not drawn)
  -2, 2, 0.0, -1, 1.4, 4, -6
> CCOC(=O)c1cc(C#N)c(Oc2ccccc2OC)nc1-c1ccccc1
  0, 1, 0.2, 2, 1.6, 2, 0
> CC(=O)OCC(=O)C1(O)CCC2C3CCC4=CC(=O)C=CC4(C)C3C(O)CC21C (stereo not drawn)
  6, 1, 0.0, -2, 0.5, 4, 9
> S=c1[nH]nc(-c2cccs2)n1/N=C/c1cn(-c2ccccc2)nc1-c1ccc(Cl)cc1
  12, 0, 0.0, -1, -2.1, 7, -12
> CCc1cc(C(c2ccc(OC)c(OC)c2)N2CCOCC2)c(NC(=O)c2ccccc2)s1 (stereo not drawn)
  -3, 0, -0.1, 0, 6.5, 2, 7

Other compounds:
Each structure is followed by: PME-1 inh, GRK2 aptamer HTS, Efflux pump mplx, Fam108B inh, MEX-5 binding, GLD-1 RNA inh, VLA-4 inh
> CCc1cc(C(c2cccc(OC)c2)N2CCOCC2)c(NC(=O)c2ccccc2)s1 (stereo not drawn)
  8, 0, 0.3, 2, 2.8, 7, 1
> Cn1c(NCc2ccco2)nc2c1c(=O)n(Cc1ccc(Cl)c(Cl)c1)c(=O)n2C
  -3, 0, -0.2, 7, -0.5, 1, -13
> O=C(CC1C(=O)N(c2ccccc2)C(=O)N1Cc1ccco1)Nc1ccccc1 (stereo not drawn)
  -5, 0, 0.1, -1, -1.1, -2, 8
> CC(c1ccccc1)C1CC(=O)N(CC(=O)O)C1=O (stereo not drawn)
  0, 0, -0.1, -1, 0.5, -7, 4
> O=C1CCCCC1
  -6, 3, 0.1, nt, nt, -4, 10
> Cc1cccc(OCC(=O)NNC(=O)CSc2ncc(C#N)c(N)n2)c1
  -7, 0, 0.0, -2, -3.2, 3, 2
> COC(=O)Nc1ccc2c(c1)N(C(=O)CCN1CCN3CCCC3C1)c1ccccc1CC2 (stereo not drawn)
  3&1, 0&0, 0.1&0.4, -1&-2, 5.3&0.7, -4&0, 8&33
> O=C1c2cccnc2C(O)N1Cc1cccs1 (stereo not drawn)
  -6, 4, -0.1, 0, -1.9, 3, 19
> Cc1cc(Cc2ccc(N)c(C)c2)ccc1N
  -6, 1, 0.0, 2, 3.5, 3, 4
> Nc1cc(C(F)(F)F)ccc1-n1cccc1
  -4, 1, -0.2, 0, 0.9, -2, 33

The list continues:
Each structure is followed by: PME-1 inh, GRK2 aptamer HTS, Efflux pump mplx, Fam108B inh, MEX-5 binding, GLD-1 RNA inh, VLA-4 inh
> CCCCC1=NC2(CCCC2)C(=O)N1Cc1ccc(-c2ccccc2-c2nn[nH]n2)cc1
  -1, 1, 0.0, -5, 1.4, 4, -10
> Cc1cc(C(F)F)n2ncc(C(=O)NCc3ccccc3)c2n1
  -2, 6, 0.0, 4, -2.7, -2, 8
> C#CCNc1nc(CC)nc2c1nnn2Cc1ccccc1F
  -5, 0, 0.1, -3, -1.2, 2, -3
> Nc1c(C(=O)Nc2ccccc2)sc2nc(-c3ccco3)ccc12
  56*, 2, 0.0, 4, -1.7, -1, -37
> COc1ccc2[nH]c3nc(SCc4nnc(-c5ccccc5)o4)nnc3c2c1
  -9, 0, -0.1, -4, 1.3, 3, -5
> Cc1cc(-c2[nH]nc3c2C(c2cccc(O)c2)C(C#N)=C(N)O3)c(C)s1 (stereo not drawn)
  7, 3, -0.1, 0, -2.8, 4, -4
> CCOC(=O)Nc1cccc(Nc2ccccc2)c1
  6, 3, -0.1, 3, 2.9, -5, -1
> O=C(O)c1ccccn1
  -4, 0, -0.1, -3, nt, 6, 5
> CCOc1ccc(NC(=O)CC2C(=O)N(C)C(=S)N2Cc2ccco2)cc1 (stereo not drawn)
  -4, 0, 0.2, -1, 2.9, 4, 8
> COc1ccc(F)cc1C(=O)C1CCCN(Cc2c[nH]c3ccccc23)C1 (stereo not drawn)
  -1, 0, 0.1, 1, -0.9, 4, 15

Other structures follow.
Each structure is followed by: PME-1 inh, GRK2 aptamer HTS, Efflux pump mplx, Fam108B inh, MEX-5 binding, GLD-1 RNA inh, VLA-4 inh
> COC(=O)c1ccc(N2CCC(C)CC2)c(N)c1
  -9, 0, -0.2, 1, 1.0, 5, -4
> COc1ccc(CNC(=O)C2COc3ccccc3O2)cc1 (stereo not drawn)
  0, 0, 0.0, 5, -0.5, 1, -6
> COc1ccc(OCCNC(=O)CSc2ccc(C(F)(F)F)cc2[N+](=O)[O-])cc1
  6, 0, -0.6, 1, 2.7, 10, 23
> O=C(Nc1ccc(F)cc1)Nc1nnc(-c2ccncc2)s1
  -68, 0, -0.1, 3, 1.2, 2, 12
> O=C(c1ccccc1)N1CCn2c(nc3ccccc32)C1
  -2, 3, -0.1, 0, -1.0, 0, 3
> CC(C)c1nnc(NC(=O)CCC(=O)NCCc2ccccc2)s1
  1, 0, -0.1, 3, -1.2, 0, -1
> Cc1ccc(Nc2nc(N)nc(CSc3nncn3C)n2)cc1
  2, 0, -0.1, -3, 0.1, 0, 10
> COc1ccc(Cn2c3ccc(OC)cc3c3nc4ccccc4nc32)cc1
  -1, 3, 0.3, 0, -39*, 5, 6
> O=C(O)/C=C/c1ccc(Cn2ccnc2)cc1
  -6, 0, -0.1, -3, 0.6, 2, 7
> CCOC(=O)c1cc(C#N)c(N2CCOCC2)nc1-c1ccccc1
  -5, 1, 0.1, 8, 1.6, 7, 0

Other entries
Each structure is followed by: PME-1 inh, GRK2 aptamer HTS, Efflux pump mplx, Fam108B inh, MEX-5 binding, GLD-1 RNA inh, VLA-4 inh
> C=CCNc1ncnc2c1cnn2-c1ccc(OC)cc1
  -4, 2, -0.1, -2, -2.7, 3, 6
> C=CCc1ccc(OCCN2CCc3ccccc3C2)c(OC)c1
  0, 14, 0.3, 9, -1.8, -4, -4
> Cn1c(NCC(O)CO)nc2c1c(=O)n(Cc1ccc(Cl)c(Cl)c1)c(=O)n2C (stereo not drawn)
  -2, 0, 0.0, 3, nt, -2, -4
> CCCCn1ccc(=O)c2c(C(F)(F)F)nccc21
  -3, 0, 0.0, 6, 0.4, 0, -4
> CSc1ccc(-c2nc(CN(C)C3CCOC3)c(C)o2)cc1 (stereo not drawn)
  2, 0, 0.0, -1, 0.0, -1, 10

Entries listed above printed as active in MEX-5 binding:
molecule	PME-1 inh	GRK2 aptamer HTS	Efflux pump mplx	MEX-5 binding	GLD-1 RNA inh	VLA-4 inh
COc1ccc(Cn2c3ccc(OC)cc3c3nc4ccccc4nc32)cc1	-1	3	0.3	-39*	5	6

2 records drawn at random from the list so far:
Each structure is followed by: PME-1 inh, GRK2 aptamer HTS, Efflux pump mplx, Fam108B inh, MEX-5 binding, GLD-1 RNA inh, VLA-4 inh
> CSc1ccc(-c2nc(CN(C)C3CCOC3)c(C)o2)cc1 (stereo not drawn)
  2, 0, 0.0, -1, 0.0, -1, 10
> C=CCc1ccc(OCCN2CCc3ccccc3C2)c(OC)c1
  0, 14, 0.3, 9, -1.8, -4, -4

Bioassay records deposited in PubChem by several laboratories.
